Compound activity deposited in PubChem BioAssay by National Center for Advancing Translational Sciences (NCATS).
miR-21 FLuc: miR-21 reporter, rising signal. HeLa miR-21 FLuc reporter, luciferase, 48 h. Potency, µM (titrated, usually from 38.3 µM), inactives show at the highest dose reporter change, positive = more light. 340,000 tested, under 10 active. AID 2288; active = well fitted rising curve with a large enough effect; inconclusive = small, poorly fitted or top-dose-only effect; inactive = no such curve, though single readings can be large or run the other way;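 further: % of control where 0% means no effect; miR-21 action dims this reporter so a rising signal means less miR-21 action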
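HeLa cells endogenously expressing miR-21, stably carrying CMV-driven firefly luciferase with a downstream miR-21 binding site, 2000 cells/well. Titrations up to approximately 40 uM, 48 hours; luciferase luminescence read.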
Active calls of the source: *; ? = inconclusive. Not all compounds are listed; rates above refer to the full screens.

cpd	miR-21 FLuc	SMILES
1	-7%	O=C(Nc1ccc2oc(-c3cccnc3)nc2c1)c1cccc(Br)c1
2	?	CCc1ccccc1NC(=O)c1sc2nc3n(c(=O)c2c1C)CCC3
3	-1%	Cc1ccc(CNC(=O)Cn2cc(C(=O)c3ccc(F)cc3)c(=O)c3ccc(C)nc32)cc1
4	-3%	CCOc1ccccc1NC(=O)c1c(NCc2sccc2C)sc2c1CCCCC2
5	0%	O=C(NCCS(=O)(=O)N1CCN(c2cccc(Cl)c2)CC1)C(c1ccccc1)c1ccccc1
6	-14%	Cc1cccc(NC(=O)Cc2csc(COc3cccc(C)c3)n2)c1
7	-21%	CCc1ccc(NCc2cc3cc4c(cc3n(CC(=O)Nc3ccc(OC)cc3)c2=O)OCO4)cc1
8	19%	COc1cccc(CNCCSc2nnnn2C)c1OCc1ccccc1Cl
9	11%	O=C(NCCn1cc(SCc2ccccc2Cl)c2ccccc21)c1cccs1
10	15%	CCCn1c(SCc2nc(-c3ccc(OC)c(OC)c3)no2)nnc1-c1ccccc1
11	2%	CCC(Oc1ccccc1)C(=O)Nc1ccccc1OCc1cc(=O)n2ccccc2n1 (stereo not drawn)
12	-14%	COc1ccc(-c2noc(N(c3cccc(Cl)c3)c3nc(-c4ccc(OC)c(OC)c4)no3)n2)cc1OC
13	-1%	CC1CCCN(S(=O)(=O)c2ccc3[nH]c(=O)cc(C(=O)NCCc4ccc(Cl)cc4)c3c2)C1 (stereo not drawn)
14	11%	Cc1ccc(NC(=O)c2nc(S(C)(=O)=O)ncc2N(Cc2ccco2)Cc2cccs2)c(C)c1
15	28%	Cc1ccc(-n2ncc(C(=O)NCCCN3CCN(c4cccc(Cl)c4)CC3)c2-n2cccc2)cc1
16	-1%	COc1cccc(-c2cc(C(F)(F)F)n3ncc(C(=O)OC(C)C)c3n2)c1
17	6%	CC1CN(C(=O)CCC(=O)Nc2cc(F)ccc2F)c2ccccc2S1 (stereo not drawn)
18	1%	Cc1nc2c(-c3ccccc3)c(C)nn2c(C)c1CCC(=O)NCCc1ccccc1
19	0%	COc1ccc(CNC(=O)Cn2ncc3c4ccccc4n(Cc4cccc(Cl)c4)c3c2=O)cc1
20	-5%	COc1ccc(-c2noc(N3CCC(C(=O)N4CCN(c5cccc(C)c5C)CC4)CC3)n2)cc1
21	-1%	COC(=O)c1c(NC(=O)Cc2coc3cc(C)ccc23)sc2c1CCC2
22	-8%	COCCN(CCOC)S(=O)(=O)c1ccc(C(=O)Nc2sc3c(c2C(N)=O)CCCC3)cc1
23	2%	Cn1nnc2c(N3CCN(c4ccc(F)cc4)CC3)ncnc21
24	2%	CC(=O)Nc1ccc(NC(=O)CCS(=O)(=O)c2ccc3c(c2)CC(=O)N3C)cc1
25	-2%	CCS(=O)(=O)NCC(c1ccco1)N1CCN(c2ccc(OC)cc2)CC1 (stereo not drawn)
26	13%	Cc1ccc(-c2nc3scc(CCNS(=O)(=O)c4ccc(Oc5ccccc5)cc4)n3n2)cc1
27	-1%	CCc1ccc(CNC(=O)c2cc(-c3ccc(Br)s3)nc3ccccc23)cc1
28	23%	Cc1ccc(NC(=O)NCCOCCn2c(=O)oc3ccccc32)cc1F
29	?	CC(=O)c1ccc(N2CCN(C(=O)CCn3cnc4onc(-c5ccc(F)cc5)c4c3=O)CC2)cc1
30	-34%	COc1cccc(C(=O)Nc2c(C(=O)Nc3ccc(F)cc3)oc3ccccc23)c1OC
31	9%	COc1cc(NC(=O)CN2CCN(S(=O)(=O)c3ccc(Br)cc3)CC2)cc(OC)c1
32	-4%	CCOC(=O)c1c(-c2ccc(Br)cc2)csc1NC(=O)c1ccccc1F
33	28%	COc1ccc(-c2cnnn2-c2ccc(NC(=O)c3ccccc3OC)cc2)cc1
34	14%	Cc1ccc(Cl)cc1NC(=O)C(=O)NCC(c1cccnc1)N1CCc2ccccc21 (stereo not drawn)
35	-5%	CC(C)CCOc1ccc(Cn2c(=O)oc3ccccc32)cc1
36	-2%	CCCCOc1cccc(C2C(C(=O)c3ccc(C)o3)=C(O)C(=O)N2Cc2ccco2)c1 (stereo not drawn)
37	3%	CSc1ncc2c(n1)-c1ccccc1N(Cc1ccccc1)S2(=O)=O
38	-1%	Cc1cccc(NC(=O)c2c(NC(=O)c3cccs3)sc3c2CCC(C)C3)c1 (stereo not drawn)
39	-6%	COc1ccc(NC(=O)N2CCN(S(=O)(=O)c3ccc4c(ccn4C)c3)CC2)cc1OC
40	-6%	Cc1ccc(NC(=O)CCS(=O)(=O)c2ccc3nc(C)sc3c2)c(C)c1

Structural class: the compounds so far containing a furan ring, fused or not (five)
cpd	miR-21 FLuc	SMILES
14	11%	Cc1ccc(NC(=O)c2nc(S(C)(=O)=O)ncc2N(Cc2ccco2)Cc2cccs2)c(C)c1
21	-1%	COC(=O)c1c(NC(=O)Cc2coc3cc(C)ccc23)sc2c1CCC2
25	-2%	CCS(=O)(=O)NCC(c1ccco1)N1CCN(c2ccc(OC)cc2)CC1 (stereo not drawn)
30	-34%	COc1cccc(C(=O)Nc2c(C(=O)Nc3ccc(F)cc3)oc3ccccc23)c1OC
36	-2%	CCCCOc1cccc(C2C(C(=O)c3ccc(C)o3)=C(O)C(=O)N2Cc2ccco2)c1 (stereo not drawn)

Reprinted at random: 6 entries already listed
cpd	miR-21 FLuc	SMILES
23	2%	Cn1nnc2c(N3CCN(c4ccc(F)cc4)CC3)ncnc21
25	-2%	CCS(=O)(=O)NCC(c1ccco1)N1CCN(c2ccc(OC)cc2)CC1 (stereo not drawn)
28	23%	Cc1ccc(NC(=O)NCCOCCn2c(=O)oc3ccccc32)cc1F
35	-5%	CC(C)CCOc1ccc(Cn2c(=O)oc3ccccc32)cc1
27	-1%	CCc1ccc(CNC(=O)c2cc(-c3ccc(Br)s3)nc3ccccc23)cc1
38	-1%	Cc1cccc(NC(=O)c2c(NC(=O)c3cccs3)sc3c2CCC(C)C3)c1 (stereo not drawn)

Remaining list, next part:
cpd	miR-21 FLuc	SMILES
41	-2%	COc1ccccc1CNC(=O)Cn1ncc2c3ccccc3n(Cc3ccccc3C)c2c1=O
42	7%	O=C(NCc1ccc(Cl)cc1)c1cnc(N2CCOCC2)c2ccccc12
43	-4%	CCOc1ccc(Nc2ncnc3c2nc2n3CCCC2)cc1
44	1%	Cc1ccc(S(=O)(=O)N2CCc3cc(C(=O)Nc4ccc(C)c(C)c4)ccc32)cc1
45	0%	COc1cccc(CNC(=O)Cc2ccc(NC(=O)N3CCSc4ncccc43)cc2)c1OC
46	3%	Cc1ccc(NC(=O)c2sc3ncn(Cc4cccc(F)c4)c(=O)c3c2C)c(Br)c1
47	3%	Cc1cccc(C(=O)NCC(c2ccco2)S(=O)(=O)c2cccs2)c1 (stereo not drawn)
48	0%	CCC(=O)N1CCc2cc(CNC(=O)Nc3cc(Cl)ccc3C(=O)OC)ccc21
49	9%	COc1ccc(Nc2ncc(C(=O)Nc3cc(Cl)c(OC)cc3OC)c3ccccc23)cc1
50	23%	Cn1c(=O)oc2cc(S(=O)(=O)N3CCC(C(=O)N4CCN(c5ccc(Cl)cc5)CC4)CC3)ccc21
51	6%	CCc1ccccc1NC(=O)c1cc(S(=O)(=O)NC2CCCC2)ccc1F
52	7%	Cc1c(Cl)cccc1NC(=O)c1cccc(NC(=O)N2CCSc3ncccc32)c1
53	-9%	O=C(CCC1N=C2c3ccccc3N=C(SCc3ccc(Cl)cc3)N2C1=O)NC1CCCCC1 (stereo not drawn)
54	?	CCN(Cc1ccccc1)S(=O)(=O)c1cc(Br)cc2c1N(C(=O)C1CC1)CC2
55	-7%	Cc1noc(/C=C/c2ccco2)c1S(=O)(=O)N1CCC(C(=O)Nc2ccc(F)c(Cl)c2)CC1
56	-30%	Cc1ccc(S(=O)(=O)Nc2cccc(-c3ccc(N4CCCCC4)nn3)c2)s1
57	18%	COc1cccc(CNC(=O)c2ccc(CN3CC(=O)N4CCCCC4C3=O)cc2)c1 (stereo not drawn)
58	0%	CN(C)S(=O)(=O)N1CCC(n2cnc3cccnc32)CC1
59	-6%	COc1cccc(CNC(=O)Cn2nc(C)c3sc4ccccc4c3c2=O)c1OC
60	4%	CCc1cnc2c(c1SCC(=O)NCc1ccc(C)cc1)c(=O)n(C)c(=O)n2C

Quoted from above, compounds 43–45
cpd	miR-21 FLuc	SMILES
43	-4%	CCOc1ccc(Nc2ncnc3c2nc2n3CCCC2)cc1
44	1%	Cc1ccc(S(=O)(=O)N2CCc3cc(C(=O)Nc4ccc(C)c(C)c4)ccc32)cc1
45	0%	COc1cccc(CNC(=O)Cc2ccc(NC(=O)N3CCSc4ncccc43)cc2)c1OC

New compounds follow.
cpd	miR-21 FLuc	SMILES
61	-2%	CCOC(=O)c1ccccc1NC(=O)Cn1cc(C(=O)c2cccc(OC)c2)c(=O)c2ccc(C)nc21
62	-3%	CC(=O)Nc1c(C)nn(-c2ccccc2)c1N1CCC(C(=O)NCc2ccc(F)cc2)CC1
63	-1%	Cc1cc(C)c2sc(N(Cc3cccnc3)C(=O)CCOc3ccccc3)nc2c1
64	-1%	CCOc1cc2c(cc1OCC)C(CC(=O)OC)N(C(=O)Nc1cc(OC)ccc1OC)CC2 (stereo not drawn)
65	3%	Cc1cc(C(=O)NCc2ccccc2Cl)c2c(C)nn(-c3ccccc3)c2n1
66	5%	CCC12CN3CC(C)(CN(C1)C3c1ccc(O)cc1O)C2=O (stereo not drawn)
67	5%	COc1cccc(-n2cc(C(=O)OCc3ccc(Cl)cc3)c3ccccc3c2=O)c1
68	-2%	Cc1ccccc1NC(=O)c1oc2c(c1C)-c1nn(Cc3cccc(Cl)c3)cc1CC2
69	0%	Cn1cnc2c(=O)oc3ccc(S(=O)(=O)N4CCN(c5cccc(C(F)(F)F)c5)CC4)cc3c21
70	0%	COc1cc(NC(=O)c2c(C)nn(-c3ccc(F)cc3)c2-n2cccc2)cc(OC)c1
71	-6%	CC(=O)c1ccc(NC(=O)c2nn(C)c3c2COc2ccccc2-3)cc1
72	24%	CCOC(=O)CSc1nnc(-c2ccc(OC)cc2)o1
73	2%	Cc1ccc(CNC(=O)Cn2c(=O)n(-c3ccc(C)cc3)c(=O)c3c2c2cc(C)ccc2n3C)cc1
74	11%	O=C(c1ccc(F)cc1)N1CCC(c2nc(-c3ccc(S(=O)(=O)N4CCCC4)cc3)no2)CC1
75	-1%	Cc1ccc(S(=O)(=O)c2nnn3c2nc(N2CCN(c4ccc(F)cc4)CC2)c2cc(Cl)ccc23)cc1C
76	-1%	CC(=O)Nc1ccc(S(=O)(=O)NCc2cccn2Cc2cccc(C)c2)cc1
77	-24%	Cc1ccc(Nc2c(-c3ccc(O)cc3)nc3cccc(C)n23)cc1
78	-6%	CC(C)(C)OC(=O)N1CCC(c2c(C(=O)NCCCN3CCc4ccccc4C3)cnn2-c2ccccc2)CC1
79	-3%	Cc1cc2c(n1-c1ccc(C(=O)O)cc1)CCCCC2
80	-7%	COc1ccc(OC)c(NC(=O)c2oc(=O)c3ccccc3c2-c2ccccc2)c1
81	8%	O=C(CSCc1nc2cccnc2n1C1CCCCC1)NCc1cccc(Br)c1
82	3%	CCC(=O)N1c2ccccc2CC1C(=O)N1CCN(c2ccccc2F)CC1 (stereo not drawn)
83	0%	CCOC(=O)c1cccc(NC(=O)CC2C(=O)N(c3ccc(OC)cc3)C(=O)N2C2CCCC2)c1 (stereo not drawn)
84	-1%	O=C(CCCCn1c(=O)c2ccccc2n(Cc2ccccc2F)c1=O)NCc1ccccc1Cl
85	-1%	O=C(Cn1ncc2c3ccccc3n(Cc3ccccc3)c2c1=O)N1CCCCCC1
86	5%	CCOC(=O)CC(NS(=O)(=O)c1cc(-c2cc(C)no2)ccc1C)c1ccc(C)cc1 (stereo not drawn)
87	-14%	Cc1ccc2c(c1)NC(=O)C(CC(=O)Nc1ccccc1Cl)O2 (stereo not drawn)
88	-1%	Cn1c(SCc2ccccc2F)nc2c([nH]c3ccccc32)c1=O
89	-6%	Cc1cc(C)cc(Oc2coc3cc(OCC(=O)NC4CCCCC4)ccc3c2=O)c1
90	-10%	COC(=O)c1ccc(CSc2c(C(C)C)cnc3c2c(=O)n(C)c(=O)n3C)cc1
91	6%	CCOc1ccc(C2C(C(N)=O)=C(C)Nc3nc(SCc4ccccc4)nn32)cc1 (stereo not drawn)
92	-20%	COc1ccc(NC(=O)CSC2=Nc3ccccc3C3=NC(CC(=O)NCc4ccc5c(c4)OCO5)C(=O)N23)cc1 (stereo not drawn)
93	4%	O=C(CN1C(=O)C2(SCC(=O)N2c2ccccc2)c2ccccc21)NCc1ccccc1 (stereo not drawn)
94	?	COc1cc(OC)cc(-c2cc3nc(C)c(CCC(=O)Nc4ccc(F)c(Cl)c4)c(C)n3n2)c1
95	-1%	COc1ccc(-c2cc(C(F)(F)F)nc(SCC(=O)NCc3ccc(Cl)cc3)n2)cc1
96	18%	CN(C(=O)c1ccc2c(c1)N(Cc1ccc(F)cc1)C(=O)c1ccccc1S2(=O)=O)C1CCCCC1
97	-1%	CCC(C(=O)NCCc1ccccc1)n1nc(C)n2c(cc3sccc32)c1=O (stereo not drawn)
98	9%	CCc1cccc2c(-c3ccccc3)nc(SCC(=O)Nc3ccccc3)nc12
99	11%	COc1ccc(CNC(=O)c2ccc3c(c2)CCN3S(=O)(=O)c2ccccc2)cc1
100	-29%	CCCCC(=O)Nc1cc(-c2nc3ccccc3o2)ccc1OC
101	-4%	O=C(O)CCc1ccc(-c2ccc(Br)cc2)n1-c1ccccc1O
102	-55%	Cc1ccc2nc(N(Cc3cccnc3)C(=O)COc3ccccc3)sc2c1
103	-26%	Clc1ccccc1CSc1nncn2c1cc1occc12
104	1%	CCC(Sc1ncccc1C(=O)Oc1ccccc1Cl)C(=O)Nc1ccccc1OC (stereo not drawn)
105	-10%	Cc1ccccc1CNC(=O)CN1C(=O)CCCc2ccccc21

Looked up above:
For miR-21 FLuc, cpd 105 has -10%
For miR-21 FLuc, cpd 104 has 1%
For miR-21 FLuc, cpd 103 has -26%
For miR-21 FLuc, cpd 102 has -55%
For miR-21 FLuc, cpd 101 has -4%
